Assay outcomes: PubChem, several laboratories
Beta2AR agonist: activates human beta-2 adrenergic receptor causing internalization. AID 504454. 0.43% of 340,000 active. response, % (concentration not given with the values). Am2.2-beta2AR cells, FAP receptor internalization, flow cytometry; reference of the scale not given here. P07550;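 active = response above a set limit, near 3 SD of response in nonfluorescent compounds, cut at about 42% in these data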;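 also: stock transfer was 100 nL into about 11 µL; a reference agonist was the positive control; negative values mostly stem from fluorescent compounds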
LANA-H2A inh: blocks KSHV LANA binding to histone H2A/H2B | cell-free LANA-H2A/H2B peptide, fluorescence polarization | inhibition, % (concentration not given with the values) | 0.6% of 320,000 active | AID 2629; in the data active = inhibition mostly above about 10%, no sharp cut-off; inactive = mostly below about 6.7%;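 also: stock transfer was 7.5 nL into about 10 µL; 0% = median of vehicle wells and 100% = median of positive control wells; one replicate is shown; the record names a cut of 25% in any replicate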
Target sequence (Q9QR71 whole entry, looked up): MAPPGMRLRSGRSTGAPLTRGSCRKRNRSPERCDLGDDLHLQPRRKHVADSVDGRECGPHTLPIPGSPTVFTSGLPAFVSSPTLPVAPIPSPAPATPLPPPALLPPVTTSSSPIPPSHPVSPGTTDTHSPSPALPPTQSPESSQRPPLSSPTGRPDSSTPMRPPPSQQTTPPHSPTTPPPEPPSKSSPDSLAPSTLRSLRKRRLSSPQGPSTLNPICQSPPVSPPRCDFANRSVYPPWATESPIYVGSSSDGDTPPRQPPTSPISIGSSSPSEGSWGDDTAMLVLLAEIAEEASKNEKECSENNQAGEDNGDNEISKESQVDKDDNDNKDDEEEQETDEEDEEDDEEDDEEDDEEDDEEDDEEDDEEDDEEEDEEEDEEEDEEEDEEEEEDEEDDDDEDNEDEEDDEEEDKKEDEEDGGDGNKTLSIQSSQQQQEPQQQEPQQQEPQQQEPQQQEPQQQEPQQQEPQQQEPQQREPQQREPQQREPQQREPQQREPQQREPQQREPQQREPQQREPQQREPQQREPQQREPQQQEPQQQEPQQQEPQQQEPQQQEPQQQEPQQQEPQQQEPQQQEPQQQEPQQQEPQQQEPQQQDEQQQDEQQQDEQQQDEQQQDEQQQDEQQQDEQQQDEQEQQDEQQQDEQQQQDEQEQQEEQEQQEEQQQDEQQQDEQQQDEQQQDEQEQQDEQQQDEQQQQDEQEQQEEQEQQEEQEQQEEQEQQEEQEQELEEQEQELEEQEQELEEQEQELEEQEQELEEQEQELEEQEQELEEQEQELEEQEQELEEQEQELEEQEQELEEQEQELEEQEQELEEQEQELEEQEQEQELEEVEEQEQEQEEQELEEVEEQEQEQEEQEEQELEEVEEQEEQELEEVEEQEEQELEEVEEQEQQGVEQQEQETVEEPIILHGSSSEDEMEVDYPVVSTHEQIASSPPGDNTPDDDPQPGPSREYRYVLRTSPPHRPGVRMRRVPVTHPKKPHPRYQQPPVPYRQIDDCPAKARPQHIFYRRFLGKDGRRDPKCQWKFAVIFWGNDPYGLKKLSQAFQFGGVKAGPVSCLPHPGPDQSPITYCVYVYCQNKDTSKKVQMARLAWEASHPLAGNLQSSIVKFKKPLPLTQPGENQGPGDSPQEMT
Calb FLC: affects C. albicans growth with fluconazole; C. albicans CaCi-2 (fluconazole-resistant clinical isolate) + fluconazole, Alamar Blue growth, 48 h; 0.57% of 300,000 active; growth inhibition, % (test concentration not listed); AID 1979;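 active = most replicates above 75%; inconclusive = exactly half above 75%; inactive = most below 75%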;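 also: all wells also contain fluconazole at 8 µg/ml as a sub-toxic cotreatment; 0% = median of DMSO wells and 100% = median of geldanamycin control wells; wells of about 8 µL received 7.5 nL stock; the first replicate is given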
A1 inh: inhibitors of the anti-apoptotic protein A1, read as caspase activation; caspase activation, % (test concentration not listed); 0.066% of 330,000 active; AID 2462; MEF A1-2A-BIM cells, Caspase-Glo 3/7 luminescence, 3 h; percent of clofoctol response, vehicle zero;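 active = over half of replicate activation scores above 10%, or exactly half above 10 with the replicate mean above 10; inconclusive = replicate mean below 10 yet half the replicates above 10; inactive = over half of replicates below 10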;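 also: wells of about 30 µL received 50 nL stock; many hits fall short of the cut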
UCH37 DUB inh: inhibitors of human deubiquitinating enzyme UCH37; AID 588478; purified proteasome/UCH37, Ub-AMC cleavage fluorescence; Q9Y5K5; 0.33% of 330,000 active; inhibition, % (test concentration not listed);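 active = mean of two replicates above 20%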;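 also: 0% = compound-free wells with enzyme and 100% = wells lacking proteasome; stock transfer was 100 nL into about 20 µL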
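Material: human UCH37 enzyme supplied as purified proteasome complex / Amount: 0.15 nM proteasome as dispensed / Buffer or medium: pH 7.4 Tris-HCl (50 mM) with ovalbumin, ATP-MgCl2, DTT / Times: preincubation 30 min, reaction 25 min, room temperature / Technique: AMC fluorescence from Ub-AMC cleavage, excitation 355 nm, emission 460 nm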
T cruzi inh: T. cruzi replication inhibition | T. cruzi beta-gal in NIH3T3, luminescence, 90 h | inhibition, % (concentration not given with the values) | 1.4% of 300,000 active;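 active = mean inhibition across valid replicates above about 55%, limit read from the data; inconclusive = mean below that limit but half or more replicates reach it; inactive = mean below it, under half of replicates reach it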;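 also: signal also drops with host cell toxicity which is not excluded here; 0% = plate median of DMSO wells and 100% = zero luminescence signal; higher percent means less beta-gal luminescence so fewer parasites; stock transfer was 50 nL into about 50 µL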
RanGTP-Impb inh: disruptors of Ran-importin-beta complex formation – biochemical, FRET, CFP-Ran, YFP-importin-beta, homogeneous, primary screen | cell-free CFP-Ran/YFP-importin-beta FRET ratio | AID 2216 | 1.1% of 300,000 active | inhibition, % (concentration not given with the values);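 active = most replicates above 15%; inconclusive = exactly half above 15%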;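 also: 0% = DMSO wells and 100% = Ran loaded with GDP instead of GTP; wells of about 40 µL received 100 nL stock; the first replicate is given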
Beta cell apopt: beta cell apoptosis inhibition; INS-1E cytokine-induced death, ATP luminescence, 48 h; percent of positive-control rescue, neutral wells zero; 0.8% of 300,000 active; protection from apoptosis, % (no concentration beside the values); AID 435005;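 active = all replicates at 75% or more, or half of them and the mean; inconclusive = half reach 75% but not the mean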;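 also: 0% = cytokine-treated negative control wells and 100% = positive control rescue; higher means more ATP so stronger rescue from cytokine killing; wells of about 40 µL received 100 nL stock; the first replicate is given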
* hit, by the source's call; ? = inconclusive; / = no result given. Compounds were not picked by outcome (roughly 4.3% active in at least one column).

SMILES	Beta2AR agonist	LANA-H2A inh	Calb FLC	A1 inh	UCH37 DUB inh	T cruzi inh	RanGTP-Impb inh	Beta cell apopt
Cc1sc2nc(CSC(C)C(=O)Nc3ccc(C(N)=O)cc3)[nH]c(=O)c2c1C (stereo not given)	6.3	2.6	-13.6	1.2	-0.5	2.3	-5.2	/
CC1CCCCC12NC(=O)N(CC(=O)Nc1ccc(OC(F)F)cc1)C2=O (stereo not given)	-3.4	-0.4	/	-0.6	-0.4	/	/	-3.6
Cc1ccc(C)c(NC(=S)N2CCC(NC(=O)c3ccco3)CC2)c1	-0.3	2.4	10.8	-0.3	1.6	-9.0	-0.2	-1.8
Cc1nn(C(=O)C(C)N2C(=O)c3ccccc3C2=O)c(C)c1Br (stereo not given)	-5.2	/	-0.4	/	0.7	-7.2	2.1	/
NC(=O)c1cc(S(=O)(=O)NCc2cccs2)cs1	-10.3	1.8	1.5	0.2	3.9	-11.4	3.5	-7.4
O=S(=O)(Nc1cccc(C(F)(F)F)c1)c1cnc[nH]1	-1.3	1.4	2.3	-0.5	1.0	-5.7	4.1	-4.1
CC1CCN(C(=O)c2cccc(S(=O)(=O)N3CCCc4ccccc43)c2)CC1	-6.8	2.6	-9.2	-0.3	2.5	12.1	-1.7	1.6
Cc1nn2c(=O)cc(CSCC(=O)Nc3ccccc3F)nc2s1	3.5	3.4	-4.8	2.6	5.5	?	1.4	-8.0
COc1cccc(Oc2ccc(N)cc2)c1	4.0	-5.0	-39.8	0.8	3.0	7.9	-0.6	-3.0
CCOc1ncccc1C(=O)OC(C)C(=O)Nc1ccc(CC)cc1 (stereo not given)	1.7	0.7	-29.6	0.1	2.1	-1.2	-4.1	-16.0
O=C(CCCN1C(=O)CCC1=O)Nc1ccc(Br)cc1F	-8.0	-3.3	12.2	0.8	5.5	-2.6	3.4	0.9
CCC(CC)C(=O)Nc1cccc(C(=O)Nc2ccc3c(c2)OCO3)c1	6.5	-1.3	-2.4	-0.6	5.2	4.2	0.5	-0.9
CC(C)(C)C1CCC(OC(=O)C[N+]2(C)CCCC2)CC1 (stereo not given)	-3.9	-0.7	-22.7	0.7	1.7	4.6	-2.6	2.8
O=C(NCc1cccnc1)C1CCC(CNS(=O)(=O)c2cccc3nsnc23)CC1 (stereo not given)	8.2	-2.3	1.9	0.3	2.6	-7.0	0.2	1.5
Cc1ccc(CNC(=O)C2CCCN(S(=O)(=O)c3c(C)[nH]c(=O)[nH]c3=O)C2)cc1 (stereo not given)	-0.2	0.1	1.4	-0.2	1.6	1.4	2.8	-5.8
CCOC(=O)C1=C(c2ccccc2)NC(=O)NC1c1ccc(OC)cc1 (stereo not given)	-2.5	-4.6	22.6	-0.3	0.5	-3.8	0.3	4.7
CCOc1nc2c(c(-c3cccs3)c1C#N)Cc1ccccc1-2	-1.5	1.6	1.1	4.4	/	0.3	3.7	-1.7
Cc1ccc2nc(-c3cccnc3)c(NC3CCCCC3)n2c1	-15.8	-1.2	-3.4	0.1	-34.1	16.0	1.4	13.4
Cc1ccc(NC(=O)c2cc(-c3ccccc3)n[nH]2)cc1	0.4	-1.2	-7.6	0.0	-0.5	-7.4	-5.3	-18.9
CC(=O)C1=C(O)C(=O)N(c2ccc(Br)cn2)C1c1cccc([N+](=O)[O-])c1 (stereo not given)	9.9	4.4	-7.1	0.0	11.7	-4.3	-0.7	-2.4
CSCCC(NC(=O)COc1ccccc1)C(=O)OCC(=O)c1cc2ccccc2o1 (stereo not given)	3.3	-0.7	8.5	0.4	0.9	-3.1	-0.9	-5.6
O=C(NCc1cccc(Cl)c1)c1ccc(S(=O)(=O)Nc2cccc(C(F)(F)F)c2)cc1	-5.5	-1.0	19.0	-0.1	-1.9	-8.0	2.8	3.7
COc1ccc(OCC(O)CNC(=O)Nc2ccccc2)cc1 (stereo not given)	0.8	5.0	-4.4	1.1	0.8	-3.7	-4.8	/
Cn1c(C(=O)NCCCN2CCN(c3ccccc3F)CC2)cc2c(=O)n(C)c3ccccc3c21	4.4	-1.2	10.4	0.9	-1.7	21.1	2.0	0.4
NC(=O)C1CCN(c2nc(-c3ccc4c(c3)OCCO4)cs2)CC1	/	2.4	/	0.2	-0.5	/	/	0.4
COc1ccc(CC(=O)N2CCCc3ccccc32)cc1OC	-3.3	3.0	10.9	0.3	0.1	8.5	-1.4	-3.8
CC(C)(C)c1cc(NC(=O)COC(=O)c2ccc(O)cc2O)n(-c2ccccc2)n1	7.9	1.2	-10.2	0.4	4.3	9.1	1.8	-3.8
COc1ccc(-n2nc(C(=O)NCC(=O)NCCCN3CCOCC3)c3ccccc3c2=O)cc1Cl	-6.3	1.0	-13.8	-0.8	1.9	1.8	4.0	2.5
O=C(c1ccccc1)N1CCN(C(=O)c2cccnc2)CC1	-5.5	-1.1	5.7	-0.2	2.7	-17.7	-3.6	2.7
CC(=O)Nc1cc(C(F)(F)F)ccc1N1CCOCC1	5.9	-2.0	4.8	-0.6	5.4	-6.7	2.0	-3.2
CC(C)c1ccc(/C=C/C(=O)O)cc1	3.2	-0.2	-2.5	0.1	4.3	-11.4	0.9	-2.6
CCc1ccc(N2C(=O)CN(Cc3sccc3C)C2=S)cc1	6.0	9.2	-3.5	0.4	-2.7	17.1	0.3	4.7
CCOC(=O)CSc1nccc(N(C)C)c1C#N	7.1	-0.7	27.7	0.6	2.5	1.4	?	/
O=C(Nc1cccc(Cl)c1)Nc1ccc(Cl)cn1	4.7	-3.4	0.1	-0.4	1.9	1.5	-1.7	4.5
Cc1ccc(N(CC(=O)N2CCN(c3ccc(F)cc3)CC2)S(=O)(=O)c2c(C)noc2C)cc1	2.2	-1.9	14.9	0.2	3.1	16.2	2.1	0.4
CCOc1ccccc1C(=O)NC(C(=O)NCCc1ccccn1)C(C)C (stereo not given)	-4.7	2.2	/	0.4	-0.3	/	/	0.9
COC(=O)c1cc(Br)c(=O)n(CCC2=CCCCC2)c1	-2.7	-2.4	1.2	-0.2	12.0	-1.2	-0.4	-2.8
CCn1cnc2sc(-c3ccccc3)cc2c1=O	-11.3	-2.2	6.6	-0.7	-1.0	-6.8	-2.3	-16.7
Cc1nn(CC(=O)NN)c(C)c1Br	-0.9	-3.8	-16.4	0.9	1.7	6.0	-0.6	-3.4
COc1ccc(C(=O)Nc2cc(OC)cc(OC)c2)cc1	-13.6	0.7	25.7	-10.7	5.0	2.9	3.2	-1.6

Two of these compounds, reformatted.
Molecule | Beta2AR agonist | LANA-H2A inh | Calb FLC | A1 inh | UCH37 DUB inh | T cruzi inh | RanGTP-Impb inh | Beta cell apopt
CC(C)c1ccc(/C=C/C(=O)O)cc1 | 3.2 | -0.2 | -2.5 | 0.1 | 4.3 | -11.4 | 0.9 | -2.6
CCc1ccc(N2C(=O)CN(Cc3sccc3C)C2=S)cc1 | 6.0 | 9.2 | -3.5 | 0.4 | -2.7 | 17.1 | 0.3 | 4.7

The results go on:
SMILES	Beta2AR agonist	LANA-H2A inh	Calb FLC	A1 inh	UCH37 DUB inh	T cruzi inh	RanGTP-Impb inh	Beta cell apopt
Cc1cc(C)c2nc(NC(=O)c3ccc(OCC4CCCO4)cc3)sc2c1 (stereo not given)	4.0	3.2	15.9	-0.6	/	-9.3	1.8	-0.3
Cc1ccc(OCC(=O)Nc2sc3c(c2C#N)CC(C)(C)NC3(C)C)cc1	1.3	-0.4	-0.9	-0.3	3.7	-10.7	-0.7	-7.9
COc1c(/C=C2\SC(=Nc3ccccc3Cl)NC2=O)cccc1[N+](=O)[O-]	6.7	-5.4	41.6	0.3	4.5	2.5	-3.0	-4.2
CNc1nc(SCC(=O)Nc2ccccc2)nc(N2CCOCC2)n1	0.3	-0.6	-5.1	0.7	4.7	9.6	-3.2	1.2
Cc1cc(F)ccc1S(=O)(=O)N1CCCOC1CNC(=O)C(=O)NCc1ccco1 (stereo not given)	0.9	0.4	-3.8	-0.1	-3.3	-1.8	-3.9	-11.5
O=C(CSc1nc(-c2ccccc2)c(-c2ccccc2)[nH]1)Nc1ccc2c(c1)OCO2	-5.1	/	-0.1	1.8	-10.5	1.7	2.5	0.5
COc1cc2c(cc1OC)-c1nc3ccccc3c(=O)n1C(C)(C)C2	6.5	0.1	0.6	-1.8	-6.6	-2.5	-5.2	4.1
COc1ccccc1N1CCN(CC(O)c2ccc3cc[nH]c3c2)CC1 (stereo not given)	16.9	-0.1	0.4	-0.1	-1.2	-32.9	1.4	-2.0
O=C(Nc1ccc(Oc2ccc(C(=O)O)c(C(=O)O)c2)cc1)c1cccs1	-4.2	6.1	7.8	0.2	5.9	2.7	-1.3	-2.1
O=C(O)C1(O)C[C@H](O)C(O)[C@@H](O)C1 (stereo not given in full)	-3.0	3.6	/	-2.3	3.2	/	/	0.4
CCC(=O)Nc1ccc(NC(=O)CSc2nnnn2-c2cccnc2)cc1C	-4.1	-0.9	4.0	1.2	2.2	-2.3	1.6	-6.0
COc1ccc2c(c1)-c1ccccc1S(=O)(=O)N2C(C)=O	14.9	-3.0	?	1.0	-83.3	-3.6	-2.4	/
Cc1ccc(NC(=O)CCNS(=O)(=O)c2cc(Br)cnc2N)c(Cl)c1	/	-5.9	-18.5	-0.3	0.0	8.1	?	3.2
Cc1ccc(Cn2c(=O)n(C)c(=O)c3sccc32)cc1	-1.6	6.1	2.1	-0.4	3.8	-1.4	0.2	-4.8
CCOC(=O)c1c(C)c[nH]c1C	9.9	-3.7	4.4	0.2	6.1	-15.3	2.9	/
COC(=O)C1CCCN1C(=O)C1CCCN1C(=O)CNC(=O)OCc1ccccc1 (stereo not given)	2.3	0.3	2.3	-0.5	3.5	-1.9	-3.2	-2.4
CN1CCN(Cc2c(C(=O)N3CCc4ccccc4C3)nc3ccc(Cl)cn23)CC1	-4.2	-6.2	8.8	0.7	-1.0	9.6	7.4	-3.1
CC(C)CCOc1ccc(C(=O)O)cc1	-0.9	2.0	0.6	-2.1	1.0	-1.7	-7.0	-7.6
O=C(NCC(F)(F)F)c1nn(Cc2ccccc2)c(=O)c2ccccc12	-2.5	7.0	-2.8	-0.2	2.7	3.8	-1.5	-2.1
COC(=O)CN(c1c(C)cccc1C)S(C)(=O)=O	-1.7	-3.6	-6.1	1.6	1.4	-9.1	3.1	-4.9
CCC(=O)N1c2ccccc2C(N(C(=O)CC)c2ccccc2)CC1C (stereo not given)	-2.4	3.5	0.3	-0.5	0.8	7.1	4.3	3.9
CCOc1cccc2cc(C(=O)NC(C)c3ccccc3)c(=N)oc12 (stereo not given)	18.7	2.6	-24.0	1.5	-2.0	0.9	2.6	-5.3
CC(C)CCNC(=O)Nc1ccc2c(c1)N(C)C(=O)CS2	-2.6	-4.1	-28.8	0.8	3.8	7.0	5.6	17.2
O=C(CSc1nnnn1-c1ccc2c(c1)OCO2)NCc1ccccc1	-6.8	-0.2	15.3	-0.1	3.9	-23.1	1.0	4.3
Cc1ccc2c(c1)c1nnc(SCC(=O)Nc3ccc(N(C)C)cc3)nc1n2CC(=O)O	-4.7	2.4	9.8	0.4	4.8	6.6	2.5	0.0
Cc1ccc(C)c(NC(=O)CN(C)C(=O)[C@@H](NC(=O)c2ccc(C(C)(C)C)cc2)C(C)C)c1	-6.5	3.3	-4.8	-0.8	1.4	3.4	0.5	1.5
